Screening results: PubChem, National Center for Advancing Translational Sciences (NCATS)
GLA inh pH 4.5: blocks human alpha-galactosidase A at pH 4.5 | purified enzyme, 4-MU-alpha-Gal fluorescence, pH 4.5 | activity change, negative = inhibition, % at 105 µM | 230,000 tested, under 10 active | AID 1467 | P06280; inconclusive = small, poorly fitted or top-dose-only inhibition, or a rising curve; inactive = flat fitted curve, though single readings scatter; no compound was filed as active;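 note: 0% = full activity with enzyme and -100% = basal without enzyme; dose as in the result columns while the protocol names 77 µM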
miR-21 reporter: raises the signal of a miR-21 reporter; HeLa miR-21 FLuc reporter, luciferase, 48 h; AID 2288; 340,000 tested, under 10 active; Potency, µM (highest dose often 38.3 µM), inactives show at the top dose reporter change, positive = more light; active = well fitted rising curve with a large enough effect; inconclusive = small, poorly fitted or top-dose-only effect; inactive = no such curve, though single readings can be large or run the other way;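 note: % of control where 0% means no effect; miR-21 action dims this reporter so a rising signal means less miR-21 action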
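HeLa cells stably expressing CMV-driven firefly luciferase with a downstream miR-21 binding sequence, endogenously expressing miR-21, were treated with titrations (up to about 40uM final) for 48 hours at 37 degree Celsius. Luciferase luminescence was read after lysis.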
Rango-impB inh: prevents formation of the Rango-importin beta complex | Q14974 | Rango CFP/YFP FRET sensor + importin beta, 45 min | Potency, µM (highest dose often 92.2 µM), without a hit: top-dose inhibition of complex formation | 340,000 tested, 0.031% active | AID 540263; active = rising FRET ratio curve, often small or poorly fitted; inconclusive = mostly compound fluorescence or quenching in the first reads; inactive = flat curves in all reads;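 note: potency is the fitted concentration of half-maximal effect; 0% = DMSO wells and 100% = buffer wells lacking importin beta; nearly all actives have a fitted effect of over 15% in size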
Target sequence (Q14974 whole entry, looked up): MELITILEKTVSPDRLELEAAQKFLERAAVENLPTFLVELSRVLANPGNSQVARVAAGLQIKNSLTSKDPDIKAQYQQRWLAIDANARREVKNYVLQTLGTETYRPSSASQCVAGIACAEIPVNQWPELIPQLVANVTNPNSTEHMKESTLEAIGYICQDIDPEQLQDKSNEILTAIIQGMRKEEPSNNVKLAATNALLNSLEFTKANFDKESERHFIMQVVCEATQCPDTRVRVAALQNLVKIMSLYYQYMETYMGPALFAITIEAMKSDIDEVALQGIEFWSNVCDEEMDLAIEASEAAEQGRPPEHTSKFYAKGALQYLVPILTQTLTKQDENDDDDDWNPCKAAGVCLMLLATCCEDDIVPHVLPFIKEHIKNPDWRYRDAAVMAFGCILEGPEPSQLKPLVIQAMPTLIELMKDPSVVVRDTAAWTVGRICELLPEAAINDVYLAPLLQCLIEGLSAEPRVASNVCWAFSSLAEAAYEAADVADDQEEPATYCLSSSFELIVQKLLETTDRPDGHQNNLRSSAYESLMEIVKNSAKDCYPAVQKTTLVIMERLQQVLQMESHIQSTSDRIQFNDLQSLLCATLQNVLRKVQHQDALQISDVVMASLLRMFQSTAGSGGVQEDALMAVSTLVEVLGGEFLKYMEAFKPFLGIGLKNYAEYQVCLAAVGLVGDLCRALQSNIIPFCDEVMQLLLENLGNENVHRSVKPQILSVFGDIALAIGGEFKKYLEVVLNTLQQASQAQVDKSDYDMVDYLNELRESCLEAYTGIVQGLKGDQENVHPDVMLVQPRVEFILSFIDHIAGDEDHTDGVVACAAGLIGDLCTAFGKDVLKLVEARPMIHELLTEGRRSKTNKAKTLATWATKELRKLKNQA
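Inhibition scored from the CFP 486 nm/YFP 530 nm FRET ratio 45 min after adding 0.125 microM importin beta to 50 nM Rango biosensor preincubated 5 min with compound (room temperature, PBS with DTT, Tween-20, BSA). No-importin wells as positive control.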
Rango release inh: prevents RanGTP from dissociating the Rango-importin beta complex; O95149+P62826; Biochemical FRET Rango-importin beta, RanGTP-induced dissociation; Potency, µM (series often up to 46.1 µM), inactives show top-dose activity change, negative = inhibition; 340,000 tested, 0.071% active; active means falling FRET ratio curve, often poorly fitted, with flat reads before Ran was added; inconclusive means other falling curves, or compound fluorescence or quenching; inactive means flat or rising ratio curve;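 note: potency is the fitted concentration of half-maximal effect; % of control where 0% means no effect; nearly all actives have a fitted effect of over 45% in size; -100% = wells without RanGTP and RCC1; the record marks most hits as doubtful in a second field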
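Rango FRET biosensor (snurportin-1 IBB flanked by N-terminal EYFP and C-terminal CFP10) at 0.1 uM, with 0.25 uM importin beta in PBS, 1mM DTT, 0.02% Tween-20, 0.1% BSA. 0.6 uM Ran, 2mM GTP and 0.2 uM RCC1 were then added for 45 min at room temperature. Inhibition read as loss of FRET rise.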
Numbers without * were called inactive; ? = inconclusive; · = not tested or not shown; & = joins results of further samples. A portion of the library; rates above refer to the full screens.

SMILES | GLA inh pH 4.5 | miR-21 reporter | Rango-impB inh | Rango release inh
COc1ccc(/C=N/NC(=O)c2ccc(Br)cc2)cc1CN1CCOCC1 | 0 | -2% | -2.1% | 12%
Oc1ccc(Cl)cc1-c1cc(-c2cccc(Br)c2)n[nH]1 | 2 | 18% | -0.2% | 5%
O=C(c1cc(-c2ccc(Cl)cc2)on1)N1CCN(c2ccc(F)cc2)CC1 | · | 0% | 0.1% | -4%
CC(=O)NC12CC3CC(C1)CC(C(=O)Nc1nccs1)(C3)C2 | 9 | -1% | 1.4% | -6%
CCn1c(C(C)NC(=O)c2ccc(OC)c(OC)c2)nc2ccccc21 (stereo not given) | 4 | -18% | ? | 1%
Cc1cccc(C)c1Nc1c(-c2ccc(N3CCOCC3)cc2)nc2ncccn12 | 7 | 5%&-3% | ? | ?
Cc1cc2cc(CCNC(=O)CC(C)C)c(=O)[nH]c2cc1C | 2 | -3% | · | ·
CN(CCc1cnn(C)c1)Cc1cn[nH]c1-c1ccc(-c2ccccc2)cc1 | 1 | -49% | 2.4% | 10%
Cc1ccc(OCCCC(=O)Nc2ccc(N3CCOCC3)cc2)c(C)c1 | 0 | -2% | 2.5% | 10%
CCOc1ccc(CN(C)Cc2cc(=O)oc3cc(C)c(Cl)cc23)cc1 | · | -5% | -1.3% | 7%
CCSc1nc2c(c(=O)[nH]1)C(c1cccnc1)C(C(=O)OC(C)C)=C(C)N2 (stereo not given) | -2 | -10% | -0.7% | 2%
Cc1noc(C)c1NC(=O)Nc1cccc2c1O[C@H](CN(C)C(=O)NC1CCCCC1)[C@@H](C)CN([C@H](C)CO)C2=O | · | · | 3.9% | -1%
Cc1onc(-c2ccccc2Cl)c1C(=O)N1CC(C)CC(C)C1 (stereo not given) | · | 14% | -0.6% | 5%
Cc1nn(C(=O)c2cccc([N+](=O)[O-])c2)c(C)c1Br | · | 2% | 3.8% | 0%
COc1ccc(C(=O)COC(=O)CCC(=O)Nc2ccc(C(C)=O)cc2)cc1 | · | -36% | -2.7% | -3%
CC(C)c1ccc(S(=O)(=O)N2CCC(C(=O)N3CCC3)CC2)cc1 | · | · | 0.5% | 0%
NC(=O)CSc1nnc(NC(=O)c2ccc(S(=O)(=O)N3CCOCC3)cc2)s1 | · | -1% | -2.0% | 0%
CCOC(=O)c1[nH]c(C)c(/C(C)=N\O)c1C | · | · | -0.7% | 0%
COc1ccc(S(=O)(=O)N2CCOC2CNC(=O)C(=O)NCCN2CCOCC2)cc1 (stereo not given) | · | 2% | 0.5% | -2%
Cc1cccn2c(CNC3CCCc4ccccc43)c(C(=O)N3CCOCC3)nc12 (stereo not given) | 2 | -4% | -2.6% | 7%
COc1ccc(NC(=O)c2cc3n(n2)C(C(F)(F)F)CC(c2ccc(OC)cc2)N3)cc1 (stereo not given) | 2 | -10% | -0.3% | 1%
COc1cc(CCC(=O)OCC(=O)NCC2CCCCC2)cc(OC)c1OC | -3 | 10% | -0.3% | 2%
O=C(CN1C(=O)c2ccccc2C1=O)Nc1cccnc1 | 0 | -3% | -0.6% | 0%
COc1ccccc1CN1CC(C(=O)NCc2cc(F)cc(C(F)(F)F)c2)CCC1=O (stereo not given) | · | -5% | 0.3% | 0%
Cc1oc(-c2cccc(Cl)c2)[n+]([O-])c1C | 0 | -2% | 0.2% | 32%

Carrying on.
SMILES | GLA inh pH 4.5 | miR-21 reporter | Rango-impB inh | Rango release inh
Cc1ccc(C)c(OCc2cc(C(=O)N3CC[C@H](O)C3)no2)c1 | · | -60% | 2.4% | 14%
CN1CCC(OC(=O)c2cccc(Cl)c2)CC1 | -1 | -1% | 0.3% | 5%
Cc1ccc(CCNC(=O)C2CCC(=O)N2C(C)C)cc1 (stereo not given) | 2 | -3% | 4.5% | -11%
COc1ccc2[nH]cc(C(=O)CN3CCC(C)CC3)c2c1 | 2 | -41% | 4.1% | 4%
CCOc1cc(N2CCOCC2)c(OCC)cc1NC(=O)CN1C(=O)C2CC=CCC2C1=O (stereo not given) | 0 | -6% | 2.3% | 1%
Cc1cccc(NC(=S)NNC(=O)CCn2cc(C)cn2)c1 | 10 | -3% | -4.4% | -8%
CC(C)OC(=O)c1ccc(N)cc1 | 4 | -16% | 1.9% | 27%
CCOC(=O)c1c(C)oc2cc(Br)c(O)c(Br)c12 | 4 | -36% | 2.1% | 2%
C/C(CC(=O)Nc1ccccn1)=N\NC(=O)c1ccc(C)cc1 | -4 | -43% | 0.9% | 23%
Cc1n[nH]c(C)c1CCC(=O)N/N=C/c1cccs1 | 2 | -1% | 0.0% | -13%
CCC(=O)NC(=S)N1CCN(c2ccc([N+](=O)[O-])cc2Cl)CC1 | 0 | 6% | 3.1% | 25%
Cc1cc(C#N)c2ccccc2n1 | 2 | -2% | -1.8% | 5%
CCOC(=O)C(CC)Sc1nc2c(cnn2-c2ccc(F)cc2)c(=O)[nH]1 (stereo not given) | · | -5% | 6.5% | 12%
COC(=O)c1c(NC(C)=O)sc(C)c1C | -1 | -4% | 0.0% | 8%
Cc1nn(C)c(C)c1NC(=O)Nc1ccc(Cl)c(Cl)c1 | 7 | 3% | 0.9% | -7%
COc1ccc(NC(=O)c2cccc(NC3=NC4CS(=O)(=O)CC4S3)c2)cc1Cl (stereo not given) | · | -9% | 0.3% | -10%
CCOC(=O)C(C)(C)Sc1nc2c(cnn2-c2ccc(Cl)cc2)c(=O)[nH]1 | -4 | -3% | -0.3% | -2%
CC(=O)COc1coc(CN2CCN(c3ccc(F)cc3)CC2)cc1=O | · | -1% | -2.5% | 10%
NC(=O)N/N=C/c1c(F)c(F)c(F)c(F)c1F | 3 | 3% | -0.5% | -2%
COc1ccc(/C=N/NC(=O)c2cc(C3CC3)[nH]n2)cc1OC | 2 | -15% | 8.6% | 9%
COC(=O)CC1C(=O)NCCN1C(=O)Nc1ccccc1 (stereo not given) | 5 | -4% | ? | ?
Clc1cccc(CN2CCN(Cc3ccco3)CC2)c1 | · | -6% | -1.0% | 1%
Cc1ccc(-n2ncc3c2CC(C)(C)CC3NC(=O)c2ccncc2)cc1 (stereo not given) | · | 3% | 1.2% | 2%
Cc1ccc(C(=O)CSc2ccccc2C(=O)O)cc1 | · | -17% | -1.0% | 10%
COC(=O)c1ccc(NC(=O)N2CCOCC2)cc1 | 3 | -13% | 2.4% | -1%

Arranged by heavy-atom count (ascending): some entries from above
SMILES | GLA inh pH 4.5 | miR-21 reporter | Rango-impB inh | Rango release inh
CCOC(=O)c1c(C)oc2cc(Br)c(O)c(Br)c12 | 4 | -36% | 2.1% | 2%
COc1ccc2[nH]cc(C(=O)CN3CCC(C)CC3)c2c1 | 2 | -41% | 4.1% | 4%
CCOC(=O)C(CC)Sc1nc2c(cnn2-c2ccc(F)cc2)c(=O)[nH]1 (stereo not given) | · | -5% | 6.5% | 12%
Cc1ccc(-n2ncc3c2CC(C)(C)CC3NC(=O)c2ccncc2)cc1 (stereo not given) | · | 3% | 1.2% | 2%

(listing goes on)
SMILES | GLA inh pH 4.5 | miR-21 reporter | Rango-impB inh | Rango release inh
Cn1c(=O)c2c(nc(CN3CCC(C(N)=O)CC3)n2Cc2ccccc2F)n(C)c1=O | -2 | -6% | 0.1% | 0%
CCOC(=O)C1=C(C)NC(C)=C(C(=O)OCC)C1C(=O)OC1CCOC1=O (stereo not given) | -6 | 1% | -1.9%&-2.9% | -8%&17%
CN(CC1CCCO1)S(=O)(=O)c1ccc(C(=O)Nc2ccccc2F)cc1 (stereo not given) | · | · | 0.5% | 0%
Cc1nn(Cc2ccccc2Cl)c(C)c1NC(=O)c1cc(-c2ccc(F)cc2)on1 | 4 | -7% | -5.4% | 14%
O=S(=O)(Cc1ccccc1)Nc1cccc(F)c1 | · | 4% | ? | 2%
CC1CCCN(C/C(O)=C(\C#N)c2nc3ccccc3[nH]2)C1 (stereo not given) | 3 | -5% | 0.4% | 8%
Cc1ccc(N(CC(=O)NC2CCCCC2C)S(=O)(=O)c2c(C)noc2C)cc1 (stereo not given) | · | -1% | 0.7% | 19%
O=C(Nc1cccc(O)c1)c1cccc(S(=O)(=O)N2CCCCCC2)c1 | · | -8% | -4.1% | -1%
Nc1ncc([N+](=O)[O-])cc1S(=O)(=O)c1ccccc1 | · | · | -0.4% | 13%
O=C(c1ccoc1)N1CCC(CO)(CCc2ccccc2)CC1 | 7 | -2% | 0.1% | 1%
CCCCNC(=O)c1cc(C)nc2ccccc12 | -2 | 0% | -4.1% | 4%
Cc1ccc(-c2cc(C(=O)NCc3ccccn3)c3ccccc3n2)cc1C | 3 | 16% | 7.1% | 0%
Oc1ccc(/C=N/NC(=S)N/N=C/c2ccc(O)cc2)cc1 | 3 | -14% | 0.7% | 6%
CCN(NC(=O)C(O)(c1ccccc1)c1ccccc1)C(=O)c1ccccc1 | 7 | -1% | 2.2% | -2%
C#CCOCCOCCOCCNc1nc(N2CCOCC2)nc(N2CCN(C(=O)[C@H](CCCN=C(N)N)n3cc(C(N)[C@@H](C)CC)nn3)CC2)n1 (stereo not given in full) | · | · | 6.8% | -9%
CCN(CC)C(=O)CSc1nnc2nnc3cc(C)ccc3n12 | 0 | -6% | 2.3% | -10%
COc1ccccc1NS(=O)(=O)c1ccccc1C#N | 2 | -3% | -1.0% | 6%
COc1cccc(C(=O)N2CCCC(Nc3ccc(C)c(C)c3)C2)c1 (stereo not given) | · | -15% | 1.8% | 7%
N#CC1=C(N)OC2=C(C(=O)CCC2)C1c1ccccc1 (stereo not given) | 1 | 1% | 0.4% | -20%
CCOC(=O)c1sc(C)c2c1NC(C)(c1cccs1)NC2=O (stereo not given) | 7 | 1% | 3.7% | 1%
COc1ccc(OC)c(CN2C(=O)CCC2(C)C(=O)NC2CCCCCC2)c1 (stereo not given) | 8 | -2% | ? | 4%
COc1ccc(C2=NN(c3nc(C)cc(C)n3)C(=O)C2)cc1 | -3 | 3% | ? | 18%
Cc1cc(C(=O)CN2CCC(C)CC2)c(C)n1-c1ccccc1F | -6 | 22% | 5.7% | -16%
CN(C)S(=O)(=O)N1CCCC(C(=O)c2ccc(-c3ccccc3)c(F)c2)C1 (stereo not given) | -1 | 16% | ? | -7%
CCN(CC)S(=O)(=O)c1cc(NC(=O)c2cccc(N3C(=O)CCC3=O)c2)ccc1Cl | · | · | 3.6% | -23%

Profiles, looked up by structure. Order of screens: GLA inh pH 4.5	miR-21 reporter	Rango-impB inh	Rango release inh
CCOC(=O)C1=C(C)NC(C)=C(C(=O)OCC)C1C(=O)OC1CCOC1=O (stereo not given) is listed with -6	1%	-1.9%&-2.9%	-8%&17%
COc1ccc(C2=NN(c3nc(C)cc(C)n3)C(=O)C2)cc1 is listed with -3	3%	?	18%

(further entries)
SMILES | GLA inh pH 4.5 | miR-21 reporter | Rango-impB inh | Rango release inh
COc1ccc(Cl)cc1NC(=O)C1CCCN(c2cc(C)nc3ncnn23)C1 (stereo not given) | 7 | -10% | -0.9% | 0%
Cc1c(CC(=O)NCC(=O)O)c(=O)oc2cc3c(cc12)CCC(C)(C)O3 | · | -8% | 0.8% | -14%
O=C(COC(=O)c1cccc(Br)c1)Nc1ccc2[nH]c(=O)[nH]c2c1 | · | · | -1.1% | -9%
CCCN1CCN(CC(=O)Nc2nnc(C)s2)CC1 | · | 0% | -0.5% | 0%
O=C(O)CCNc1nc(-c2ccccc2)c2cc(Br)ccc2n1 | · | -3% | 0.3% | 9%
COC(=O)c1cccc(NC(=O)CSc2nnc(COc3cccc(C)c3)n2C)c1 | 4 | -4% | -0.3% | -4%
NC(=O)C1(N2CCCCC2)CCN(C(=O)c2cccn3c(=O)c4cc(Cl)ccc4nc23)CC1 | 12 | -9% | ? | ?
NC(=O)N/N=C/C=C/c1ccccc1 | 8 | -18% | 3.1% | -1%
Cc1cccc(NC(=O)c2c(-c3ccccc3)noc2C)n1 | -1 | 5% | 1.4% | 2%
CCn1c(=O)cc(SCC(=O)NCc2ccco2)c2ccccc21 | -3 | 18% | -3.4% | 0%
COc1ccc(-c2cc(C(F)(F)F)nc(SCC(=O)N3CCOCC3)n2)cc1OC | -13 | -10% | -3.0% | 0%
Cc1ncoc1C(=O)N1CCCC(C(=O)c2ccc(-c3ccccc3)c(F)c2)C1 (stereo not given) | · | -1% | -1.9% | -14%
